Assay outcomes deposited in PubChem BioAssay by ICCB-Longwood Screening Facility, Harvard Medical School.
BasE inh: BasE siderophore enzyme inhibitors, primary screen, biochemical, Acinetobacter baumannii ATCC 17978, fluorescence polarization; purified BasE, fluorescence polarization binding displacement; AID 485350, 2010; inhibition, % (concentration not given with the values); hit rate 0.1% among 84,000;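 active = both replicates above 25% with normal brightness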;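 also: 0% = negative plate control signal and 100% = positive plate control signal; stock transfer was 100 nL into about 30 µL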
LANA-nucl inh: inhibitors of KSHV LANA-nucleosome binding, primary screen, biochemical, fluorescence polarization, FITC-LANA1-23, chicken nucleosomes | FITC-LANA1-23 / chicken nucleosome fluorescence polarization; stronger effect = lower value | z-score (test concentration not listed) | hit rate 0.3% among 51,000 | AID 720717, 2013;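 active = both repeat wells score below -2 in polarization z-score versus plate sample wells, excluding overly bright wells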;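 also: 100 nL library stock added to about 30 µL; numbers are from one replicate; some results filed as inactive read as strong as hits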
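System – purified chicken nucleosomes with FITC-labelled LANA N-terminal peptide (1-23) · Amount – 240 nM purified chicken nucleosomes (480 nM peptide binding sites), final · Also added – 50 nM FITC-LANA1-23 probe · Medium – TEN-BT buffer, pH 7.5 · Incubation – compound with peptide–nucleosome mix 10–45 min at room temperature · Detection – fluorescence polarization, ex 480 nm, em 535 nm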
The depositor's hits bear a star; nt = not tested or not shown.

SMILES | BasE inh | LANA-nucl inh
CC1CN(C(=O)Nc2ccc(F)cc2)c2ccccc2S1 (stereo unspecified) | -3.6 | 1.1
CCCCOc1ccc(C(=O)OCC2CCCN3CCCCC23)cc1OC (stereo unspecified) | -6.4 | 0.724
CCN1CC(=O)N(CC)C1=S | -1.0 | nt
CC(C)CN1C(=O)c2ccc(C(=O)Nc3ccncc3)cc2C1=O | 0.0 | -0.392
COc1ccc2ncc(S(=O)(=O)c3ccc(C)c(C)c3)c(N3CCN(C)CC3)c2c1 | -0.9 | -0.559
Cc1ccc(Nc2c(-c3ccc(N4CCOCC4)cc3)nc3ccccn23)cc1 | 2.4 | -0.409
CN(Cc1ccccc1)C(=O)CSc1nnc(-c2ccccc2F)n1N | -1.1 | nt
c1coc(-c2nc(-c3ccco3)c(-c3ccco3)nc2-c2ccco2)c1 | -0.2 | nt
CCSC1=N/C(=C\c2ccc(-c3cccc(Cl)c3)o2)C(=O)S1 | -5.6 | 0.086
CC1(C)CC(=O)C(C=NC2CCCC2)=C(O)C1 | 2.0 | nt
CN(C)C(=O)CSc1nnc2c(Cl)cc(Cl)cn12 | 0.5 | nt
O=C(COc1ccc(F)cc1)Nc1ccc2c(c1)OCCO2 | 1.1 | -0.734
Cc1ccc(/C(O)=C(\C#N)c2nc3ccccc3s2)cc1C | -0.1 | 0.379
CCN(Cc1ccccc1)C(=O)c1ccc(CS(=O)c2ccccc2C)o1 (stereo unspecified) | -2.1 | 0.49
CN1CCN(C(=S)NC(=O)c2ccccc2)CC1 | -1.6 | 2.31
O=C(NC1CCN(C(=O)Nc2cccc(F)c2)CC1)c1ccco1 | -0.6 | -1.31
CC(=O)Nc1ccc(SCC(=O)N2N=C(c3ccc(Cl)cc3)CC2c2ccco2)cc1 (stereo unspecified) | -3.6 | nt
Cc1ccc(C(=O)NC(C)C(c2cccs2)N2CCN(C)CC2)cc1 (stereo unspecified) | 0.3 | -1.74
CC(C)(C)NC(=O)COc1cc(N2CCOCC2)c2ccccc2c1Cl | 0.9 | nt
CCCCc1sc(N)nc1-c1ccc2c(c1)CCN2S(C)(=O)=O | -1.4 | 0.728
O=C(CN1CCN(c2ccccc2Cl)CC1)N1CCNC1=O | 1.6 | nt
CCOc1ccc(I)cc1C#N | 3.4 | -1.32
COCCN1CN=C(Nc2nc3ccccc3s2)NC1 | 1.2 | 0.956
C=CCn1c(=O)/c(=C/c2c(O)ccc3ccccc23)s/c1=C(/C#N)c1nnc2n1CCCCC2 | -5.9 | nt
CC1CCCC(C)N1C(=O)C1c2ccccc2Oc2ccccc21 (stereo unspecified) | 1.5 | 1.12

Continued.
SMILES | BasE inh | LANA-nucl inh
CCNC(=O)C(C)N (stereo unspecified) | 0.4 | nt
CCC(C)(C#CCN1CCOCC1)OC(C)=O (stereo unspecified) | 2.1 | -0.194
COc1ccc(C(=O)N2CC3(C)CC2CC(C)(C)C3)cc1OC (stereo unspecified) | 0.2 | nt
CS(=O)(=O)c1ccc(Cl)c(NC(=O)CN2CCN(Cc3ccc(Cl)s3)CC2)c1 | -1.5 | nt
CN(C)S(=O)(=O)c1cccc(COC(=O)c2cnccn2)c1 | 1.1 | nt
CCCN1Cc2cccc(C(=O)NCc3cccs3)c2C1=O | 1.4 | -0.578
O=C(NCc1cccnc1)/C(=C\c1ccc(Br)cc1)S(=O)(=O)c1ccccc1 | -0.9 | nt
CC(Sc1nnc(-c2ccccc2)n1N)C(=O)O (stereo unspecified) | -3.2 | -1.28
COc1ccccc1/C=N/N(CCC#N)C1=NS(=O)(=O)c2ccccc21 | 2.8 | 0.192
CC1C(=O)C(C)C(c2ccc(O)cc2)NC1c1ccc(O)cc1 (stereo unspecified) | 6.2 | 0.003
NC(=O)c1ccc(-c2nnc(-c3ccccc3)o2)cc1 | -0.3 | nt
CCOC(=O)c1[nH]ncc1Sc1ccc(Cl)cc1 | 1.8 | nt
CCOC(=O)C1CCN(C(=O)c2cc3c(ccc4ccccc43)o2)CC1 | -4.4 | 0.354
CS(=O)(=O)c1ccccc1C(=O)Nc1ccc(-c2nc3ccccc3o2)cc1 | -2.1 | 0.499
CCc1ccccc1NC(=O)CN1CCNCC1 | 1.7 | nt
CCOC(=O)CC1C(=O)NCCN1Cc1ccc(Cl)c(F)c1 (stereo unspecified) | -3.1 | 0.467
COc1cc(OC)cc(C2CC(OC(=O)Cn3ncc4ccccc4c3=O)C(=O)N2C)c1 (stereo unspecified) | -1.0 | -0.432
Cc1ccc(COc2ccccc2C(N)=O)cc1 | -1.7 | nt
COc1ccccc1NC1=NC2(N=C(N)N1)C(=O)N(C(C)=O)c1ccccc12 (stereo unspecified) | 1.6 | -0.107
CCOC(=O)c1cn2nc(-c3ccc(OCC)cc3)cc2nc1C | -0.6 | -1.22
COC(=O)c1ccc(S(=O)(=O)N(CCO)CCO)n1C | -1.3 | 2.87
CNCC(=O)Nc1cc(C)ccc1C | 0.9 | nt
CNC(=O)c1c(NC(=O)c2nc3ccccc3s2)sc(C)c1C | -1.3 | 3.57
CC(=O)N1CCN(C(=O)c2cccc(S(=O)(=O)N(C)C(C)C)c2)CC1 | 0.5 | nt
Cc1nn(-c2ccccc2)c2c1CC1(C(=O)NC(=O)c3ccccc31)C1CCCN21 (stereo unspecified) | 2.8 | nt

6 entries picked at random from the list so far:
SMILES | BasE inh | LANA-nucl inh
COc1cc(OC)cc(C2CC(OC(=O)Cn3ncc4ccccc4c3=O)C(=O)N2C)c1 (stereo unspecified) | -1.0 | -0.432
CC1C(=O)C(C)C(c2ccc(O)cc2)NC1c1ccc(O)cc1 (stereo unspecified) | 6.2 | 0.003
CCOC(=O)c1[nH]ncc1Sc1ccc(Cl)cc1 | 1.8 | nt
CC(=O)N1CCN(C(=O)c2cccc(S(=O)(=O)N(C)C(C)C)c2)CC1 | 0.5 | nt
CC(Sc1nnc(-c2ccccc2)n1N)C(=O)O (stereo unspecified) | -3.2 | -1.28
CNCC(=O)Nc1cc(C)ccc1C | 0.9 | nt

Some of these compounds in order of their number in LANA-nucl inh, rising.
structure	LANA-nucl inh
CCCN1Cc2cccc(C(=O)NCc3cccs3)c2C1=O	-0.578
COC(=O)c1ccc(S(=O)(=O)N(CCO)CCO)n1C	2.87
CNC(=O)c1c(NC(=O)c2nc3ccccc3s2)sc(C)c1C	3.57

(cont.)
SMILES | BasE inh | LANA-nucl inh
CCCCOC(=O)OC1CCS(=O)(=O)C1 (stereo unspecified) | 1.6 | -0.913
CC1c2[nH]c3ccccc3c2CCN1C(=S)Nc1ccccc1 (stereo unspecified) | 0.2 | nt
S=C(Nc1ccccc1Cl)N1CCOC1c1c[nH]c2ccccc12 (stereo unspecified) | 3.5 | nt
CCC1CSC(=Nc2ccc(Cl)c(Cl)c2)N1C(=O)CCc1c(C)[nH]c(=O)c(C#N)c1C (stereo unspecified) | -0.7 | nt
N#CCCN1CCNCC1 | -0.1 | 0.227
O=C1CCCc2cc(S(=O)(=O)NC3CCCCCC3)ccc2N1 | 1.7 | nt
FC(F)(F)c1ccccc1CNc1ccc(-c2nc3ncccc3o2)cc1 | -1.6 | -1.39
C=C(C)CC(NC(C)c1ccccc1)c1ccco1 (stereo unspecified) | 2.5 | nt
CCCCn1nnc(NC(=O)CSc2ccc(Cl)cc2)n1 | -2.9 | 2.42
CN(C)C(CNC(=O)C1CCCN1C(=O)c1cccs1)c1ccccc1 (stereo unspecified) | 4.0 | nt
O=C(O)c1ccc(CN2C(=O)SC(Nc3ccccc3)C2=O)cc1 (stereo unspecified) | 0.7 | -1.47
O=C1CCC(C(=O)N[C@@H](Cc2ccccc2)c2nc3ccccc3[nH]2)=NN1 | 0.2 | nt
O=C(NN1C(=O)C2C3C=CC(C3)C2C1=O)C(O)c1ccccc1 (stereo unspecified) | -0.4 | -0.425
Oc1ccccc1-c1cc2ccccc2[nH]1 | -1.9 | 0.674
Cc1noc(-c2ccccc2OCC(=O)O)n1 | 1.8 | -0.337
CC(O)CNc1nc2ccccc2n1CC(=O)NC12CC3CC(CC(C3)C1)C2 (stereo unspecified) | -1.1 | nt
CCOC(=O)c1scnc1C | 7.1 | -0.479
Cn1cc2c(=O)[nH]nnc2n1 | 5.1 | -0.58
CCC1CCc2nc3sc(C(=O)Nc4ccccc4C(F)(F)F)c(N)c3cc2C1 (stereo unspecified) | 2.4 | nt
COCCn1c(C)cc(C(=O)COC(=O)CN2C(=O)c3ccccc3C2=O)c1C | 0.0 | nt
O=S(=O)(NC1CCCC1)c1ccccc1Cl | -4.3 | nt
O=C1NCCN/C1=C\c1ccc2ccccc2n1 | 0.7 | nt
COC(=O)c1cc(NC(=O)C2CCCN(S(=O)(=O)N3CCC(C)CC3)C2)cc(C(=O)OC)c1 (stereo unspecified) | 1.2 | -1.51
CCCN(CCC)S(=O)(=O)c1ccc(C(=O)Nc2cccc(SC)c2)cc1 | 1.3 | nt
Cc1ccc(Nc2nc(C(=O)NCc3ccco3)cs2)cc1 | -2.1 | -0.113

Record cards (already shown):
CCCCn1nnc(NC(=O)CSc2ccc(Cl)cc2)n1 as listed: BasE inh = -2.9; LANA-nucl inh = 2.42
O=C1NCCN/C1=C\c1ccc2ccccc2n1 as listed: BasE inh = 0.7; LANA-nucl inh = nt
Cc1ccc(Nc2nc(C(=O)NCc3ccco3)cs2)cc1 as listed: BasE inh = -2.1; LANA-nucl inh = -0.113

Additional structures follow.
SMILES | BasE inh | LANA-nucl inh
CNC1C(O)C(OC2C(N)CC(N)C(OC3OC(CN)=CCC3N)C2O)OCC1(C)O (stereo unspecified) | -1.4 | 0.398
CC(C)(C)C(=O)Nc1cccc2[nH]ncc12 | nt | -0.128
C=C1CSc2nc(=O)c3c4c(sc3n21)CCC4 | -0.3 | -0.078
CCCCCCCCCCCCCC(=O)N[C@H](C)[C@@H](O)c1ccccc1 | -1.6 | 0.592
COc1ccc(Cl)cc1S(=O)(=O)N1CCN(Cc2ccc3c(c2)OCO3)CC1 | 0.9 | -0.778
CC(C)C(C(=O)Nc1ccc(F)cc1)N1Cc2ccccc2C1=O (stereo unspecified) | 1.0 | 0.138
CCc1ccc(C(=O)CSc2nnc3oc4ccc(S(=O)(=O)N(C)C)cc4n23)cc1 | -1.0 | nt
CSc1nn(-c2ccccc2)cc1C(=O)Nc1cccc(C(F)(F)F)c1 | -0.7 | nt
CCc1cc(CN)on1 | -0.9 | 0.272
CC1CCN(S(=O)(=O)c2ccc(NC(=O)Cn3c(=O)sc4ccccc43)cc2)CC1 | -1.0 | 0.685
Cc1c(C(=O)O)oc2ccc3c(c12)C(O)CC(C)(C)O3 (stereo unspecified) | 1.4 | 2.16
CCOc1ccc(OCCCC(=O)NC2=NCCS2)cc1 | 1.1 | nt
CCCCN(CC)C(=O)Nc1cn(C)c(=O)c2ccccc12 | 1.0 | -0.373
Cc1cccc2c3nc4ccccc4nc3n(CC#N)c12 | 3.1 | -1.15
CCOC(=O)Nc1nnc(-c2ccccc2)s1 | 1.1 | 0.675
O=C(CN1CCN(c2ncccn2)CC1)N1CCCC1 | -0.2 | -1.37
Cc1sc2nc(C(C)OC(=O)c3ccc4c(c3)C(=O)N(Cc3ccco3)C4=O)[nH]c(=O)c2c1C (stereo unspecified) | -3.1 | nt
COCCNC(=O)c1cc2ccccc2o1 | -0.3 | -0.243
CN1CCc2c(sc(N)c2C(=O)O)C1 | 2.6 | 0.604
COCC(C)n1c(COc2ccccc2F)nnc1SCC(=O)Nc1nc(C)cs1 (stereo unspecified) | -0.1 | nt
CCCOC(=O)c1c(NC(=O)OC)sc2c1CCCCC2 | 1.3 | -0.726
O=C(Oc1ccccc1N1CCOCC1)c1sccc1Br | nt | 0.405
Cc1cc(C)n(CCCNC(=O)CSc2nnc3n2CCCCC3)n1 | 1.1 | nt
CC1(C)C(=O)N(CC(O)CNc2ccccc2)C(=O)N1CN1C(=O)N(CC(O)CNc2ccccc2)C(=O)C1(C)C (stereo unspecified) | 1.9 | -0.281
S=C(NC1=NCCS1)Nc1ccccc1 | 2.2 | 0.956

Other structures:
SMILES | BasE inh | LANA-nucl inh
CCN1C(=O)c2ccccc2S(=O)c2ccc(C(=O)NCc3ccccn3)cc21 (stereo unspecified) | 9.3 | -2.17
Cn1c(C(F)(F)F)nc2c(=O)oc3ccccc3c21 | 0.5 | nt
Clc1ccc(CN2CCN(c3cccc4[nH]ccc34)CC2)c(Cl)c1 | nt | -0.687
CC(=O)Oc1cc(OC(C)=O)cc(OC(C)=O)c1 | 0.8 | nt
O=C(c1cccc(S(=O)(=O)N2CCCC2)c1)N(CC1CCCO1)c1nc2ccccc2s1 (stereo unspecified) | 2.0 | nt
c1ccc2c(c1)N=C(NNC1=Nc3ccccc3SC1)CS2 | 3.1 | 0.0555
CCc1ccccc1Nc1nc(N)nc(CSCC(=O)c2cc(C)n(C)c2C)n1 | -3.6 | nt
CC(Oc1ccc(OCc2ccccc2)cc1)C(=O)O (stereo unspecified) | nt | 0.627
Cc1ccc2[nH]c(=O)c(C(c3nnnn3C3CCCC3)N(C)C3CCCCC3)cc2c1 (stereo unspecified) | 3.6 | 0.122
Cc1ccccc1-n1cnnc1SCC(=O)NC1(C#N)CCCC1 | 0.9 | nt
COc1ccc(Cn2nnnc2CN2CCN(c3cc(Cl)ccc3C)CC2)cc1 | 1.4 | -0.753
O=C(c1ccccc1C(F)(F)F)N1CCN(c2ccccc2F)CC1 | -0.8 | nt
CC(C)(C)NC(=O)CCc1nc2ccccc2s1 | -1.9 | nt
CCN1CCN(C(=O)c2cccc(F)c2F)CC1 | 1.5 | 0.259

Only part of the results is shown; the hit share may differ from the screen's.
